Screens deposited in PubChem BioAssay by several laboratories.
RanGTP-Impb inh – inhibitors of RanGTP-importin-beta interaction, primary screen, biochemical, FRET, CFP-Ran, YFP-importin-beta, homogeneous; cell-free CFP-Ran/YFP-importin-beta FRET ratio; inhibition, % (test concentration not listed); actives 1.1% (n = 300,000); AID 2216;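 active = most replicates above 15%; inconclusive = exactly half above 15%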;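 note: 0% = DMSO wells and 100% = Ran loaded with GDP instead of GTP; wells of about 40 µL received 100 nL stock; the first replicate is given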
AF4-AF9 inh – inhibitors of human MLL-AF4/AF9 interaction; actives 0.47% (n = 350,000); AlphaScreen, biotin-AF4 peptide binding to FLAG-AF9; inhibition, % at 10 µM; AID 651704;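 active = every replicate reaching a set inhibition limit, whatever the replicate mean, cut at about 25% in these data; inconclusive = mean inhibition reaches that limit but some replicates miss it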;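 note: 0% = plate neutral control median and 100% = total signal loss; the record names both 10 and 1 µM as test concentration; the first replicate is given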
Target sequence (P42568 whole entry, looked up): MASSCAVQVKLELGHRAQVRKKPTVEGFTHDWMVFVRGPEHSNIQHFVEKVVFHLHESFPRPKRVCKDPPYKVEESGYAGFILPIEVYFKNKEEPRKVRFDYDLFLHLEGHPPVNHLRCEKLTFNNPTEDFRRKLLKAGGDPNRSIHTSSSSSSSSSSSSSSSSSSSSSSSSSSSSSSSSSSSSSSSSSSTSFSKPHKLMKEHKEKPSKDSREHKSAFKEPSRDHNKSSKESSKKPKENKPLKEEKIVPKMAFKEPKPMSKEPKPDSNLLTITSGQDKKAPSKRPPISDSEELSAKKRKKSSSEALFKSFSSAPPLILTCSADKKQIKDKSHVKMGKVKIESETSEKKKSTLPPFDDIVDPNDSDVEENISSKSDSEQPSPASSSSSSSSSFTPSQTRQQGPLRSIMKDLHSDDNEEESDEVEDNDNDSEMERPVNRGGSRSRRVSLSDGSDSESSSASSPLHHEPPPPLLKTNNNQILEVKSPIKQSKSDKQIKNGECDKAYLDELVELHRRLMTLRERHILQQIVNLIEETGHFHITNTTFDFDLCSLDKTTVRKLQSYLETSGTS
rRNA inh HTS – selective bacterial rRNA inhibition in E. coli; E. coli WT GFP vs humanized-ribosome RFP mutants, fluorescence, 24 h; active compounds read low; DMSO median 0, no signal -100; GFP signal change (wild-type ribosome), % (test concentration not listed); actives 1.6% (n = 350,000);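 active = significant combined selectivity score with lowered wild-type GFP, culture density cut under 30%, mutant RFP and density less affected; inactive = any of these conditions unmet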; note: one replicate is shown; some compounds called inactive have numbers as strong as hits
Vif TR-FRET – inhibitors of Vif binding to APOBEC3G peptide, primary screen, biochemical, TR-FRET, GST-Vif 1-94, biotin-A3G peptide, dose response retest (AID 1117319). TR-FRET GST-Vif / biotin-A3G peptide binding; higher % means a stronger effect; test concentration not given here; strong numbers were not always called active. inhibition, %, or IC50 in µM where a hit was titrated. actives 0.57% (n = 260,000);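 active = above the screen mean plus three standard deviations and confirmed in dose response; inconclusive = results disagree or hit not tested in dose response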;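 note: Vif residues 1-94 fused to GST binding biotinylated APOBEC3G peptide 110-148; 0% = full assay without inhibitor and 100% = GST in place of GST-Vif; retest series ran down from 100 µM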
T cruzi repl – T. cruzi replication inhibition; T. cruzi beta-gal in NIH3T3, luminescence, 90 h; inhibition, % (no concentration beside the values); actives 1.4% (n = 300,000); AID 1885;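 active = mean inhibition across valid replicates above about 55%, limit read from the data; inconclusive = mean below that limit but half or more replicates reach it; inactive = mean below it, under half of replicates reach it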;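 note: signal also drops with host cell toxicity which is not excluded here; 0% = plate median of DMSO wells and 100% = zero luminescence signal; higher percent means less beta-gal luminescence so fewer parasites; stock transfer was 50 nL into about 50 µL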
Beta cell apopt – beta cell apoptosis inhibition. INS-1E cytokine-induced death, ATP luminescence, 48 h; percent of positive-control rescue, neutral wells zero. protection from apoptosis, % (test concentration not listed). actives 0.8% (n = 300,000);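 active = all replicates at 75% or more, or half of them and the mean; inconclusive = half reach 75% but not the mean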;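 note: 0% = cytokine-treated negative control wells and 100% = positive control rescue; higher means more ATP so stronger rescue from cytokine killing; wells of about 40 µL received 100 nL stock; the first replicate is given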
Calb FLC – C. albicans growth modulation with fluconazole; actives 0.57% (n = 300,000); AID 1979; C. albicans CaCi-2 (fluconazole-resistant clinical isolate) + fluconazole, Alamar Blue growth, 48 h; growth inhibition, % (test concentration not listed);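 active = most replicates above 75%; inconclusive = exactly half above 75%; inactive = most below 75%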;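 note: all wells also contain fluconazole at 8 µg/ml as a sub-toxic cotreatment; 0% = median of DMSO wells and 100% = median of geldanamycin control wells; wells of about 8 µL received 7.5 nL stock; the first replicate is given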
A1 inh – inhibitors of the anti-apoptotic protein A1, read as caspase activation. MEF A1-2A-BIM cells, Caspase-Glo 3/7 luminescence, 3 h; percent of clofoctol response, vehicle zero. caspase activation, % (test concentration not listed). actives 0.066% (n = 330,000);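 active = over half of replicate activation scores above 10%, or exactly half above 10 with the replicate mean above 10; inconclusive = replicate mean below 10 yet half the replicates above 10; inactive = over half of replicates below 10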;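 note: wells of about 30 µL received 50 nL stock; many hits fall short of the cut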
rRNA inh HTS OD600 – also measured in rRNA inh HTS; calls as there; OD600 change, %; measured here: OD600 growth;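 optical density of the mix in the first replicate; 0 = DMSO median and -100 = no signal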
rRNA inh HTS RFP – further read-out of rRNA inh HTS, marked with its call; RFP signal change, %; measured here: RFP humanized mutant strains;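 first replicate; 0 = DMSO median and -100 = no signal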
An asterisk follows results filed as active; ? = inconclusive; . = not tested or not shown. This is a subset, so the mix of outcomes need not match the whole.

Each structure is followed by: T cruzi repl	Calb FLC	rRNA inh HTS OD600	RanGTP-Impb inh	AF4-AF9 inh	rRNA inh HTS RFP	rRNA inh HTS	Vif TR-FRET	A1 inh	Beta cell apopt
N#CC1=C(SCC(N)=O)NC(=O)CC1c1ccccc1Cl (stereo unspecified)
  2	7	0	-1.0	3.9	-2.4	2	5%	-0.3	.
CCOc1[nH]n(-c2ccc(Cl)cc2)c(=O)c1C=Nc1ccc(O)cc1
  -26	-3	.	-0.1	.	.	.	?	0.2	7
CC(C)n1c(CN(C)Cc2ccccc2)nc2c1c(=O)n(C)c(=O)n2C
  -20	-6	-12	3.1	-3.9	-0.8	-5	.	-0.1	96*
COc1ccc(CCNC(=O)c2ccn[nH]2)cc1OC
  .	1	.	?	.	.	.	-1%	0.1	-1
Cc1cccc(CNc2ncnc3ccc(-c4ccccc4Cl)cc23)c1
  .	.	-10	.	-0.8	-5.1	-10	.	0.8	0
COc1ccc(S(=O)(=O)NCCC(=O)OCC(=O)NC2CC2)cc1
  .	.	15	.	-1.1	3.0	18	-5%	0.8	-3
COCc1cc(OC)nc(-c2csc(C)n2)n1
  .	-4	-16	7.4	-2.6	1.9	2	-1%	2.6	.
COc1ccccc1NC(=O)c1ccc(N2CC3CC(C2)c2cccc(=O)n2C3)c(NC(=O)c2ccncc2)c1 (stereo unspecified)
  -3	8	6	-2.5	-0.7	1.9	7	?	0.3	5
O=C(COC(=O)c1sc2cc(F)ccc2c1Cl)Nc1ncc(Cl)cc1Cl
  -7	1	11	1.2	0.6	3.0	21	7%	0.1	2
CN1CCN(C(=O)Cn2c(=O)oc3cc(S(=O)(=O)NCc4ccccc4)ccc32)CC1
  .	.	3	.	5.4	0.7	1	3%	1.1	.
O=C(Nc1cc(S(=O)(=O)N2CCCC2)ccc1OCC(F)(F)F)c1ccccc1F
  5	26	.	3.8	.	.	.	-7%	-0.2	5
Cc1ccc(S(=O)(=O)NC(CC(C)C)C(=O)N2CC(C)OC(C)C2)cc1 (stereo unspecified)
  -3	-10	9	-2.5	-6.2	6.6	19	.	0.0	2
COc1ccccc1NC(=S)NC(NC(C)=O)C(Cl)(Cl)Cl (stereo unspecified)
  -30	-6	-11	6.8	-2.6	-3.3	-13	-3%	-0.2	-1
COc1ccc(NC(=O)CN(C)C(=O)CNC(=O)c2cccs2)cc1
  -7	-9	9	7.4	-6.2	1.4	9	.	-0.5	-1
O=C(OCC(=O)N1CCC(Cc2ccccc2)CC1)c1ccccc1NCCO
  2	.	-26	4.5	-4.3	0.5	8	4%	-0.1	-1
O=C(Nc1ccc(Cl)cc1)NC1CCS(=O)(=O)C1 (stereo unspecified)
  -31	-6	4	1.3	.	-5.0	0	1%	-0.2	-3
CN(C(=O)COC(=O)/C=C/c1ccc(C(F)(F)F)cc1)C1CCS(=O)(=O)C1 (stereo unspecified)
  11	16	5	?	-1.0	-2.5	5	-2%	-1.5	1
O=C(c1ccco1)N1CCN(S(=O)(=O)c2ccccc2)CC1
  -2	7	5	-1.3	-2.8	-6.3	1	.	0.8	-2
COc1ccc(N2CCN(C(=O)c3ccc(Br)cc3)CC2)c([N+](=O)[O-])c1
  14	16	-8.2*	?	6.1	0.6*	-24*	-6%	-0.3	-5
COC(=O)c1ccc(OC)c(CSc2nnc(COc3ccc(OC)cc3)o2)c1
  -1	-15	.	2.9	.	.	.	-2%	0.5	2
Cc1noc(C)c1COc1ccc(C(=O)OCC(=O)OC(C)(C)C)cc1
  -8	-5	-37	?	-2.0	-4.8	-29	25%	0.1	2
CC(=O)c1cccc(NC(=O)C2CCCN2S(=O)(=O)c2cccc3cccnc23)c1 (stereo unspecified)
  2	-16	-3	4.4	1.5	0.3	-1	-57%	-0.1	-3
CCN1CCN(C(c2ccccc2)c2nnnn2CCc2ccc(OC)c(OC)c2)CC1 (stereo unspecified)
  ?	-4	.	1.7	.	.	.	-4%	1.0	.
Cc1cc(Br)cc2c(C(=O)NCC3CCCO3)cc(-c3ccccc3)nc12 (stereo unspecified)
  14	-5	22	3.9	-1.6	-2.7	0	.	0.3	.
c1ccc2c(CSCc3nc4ccccc4[nH]3)cccc2c1
  -4	-15	.	4.2	.	.	.	-7%	-1.2	9
Cc1nc2ccccc2c2nc(NC(=O)Cc3ccccc3)nn12
  -2	0	.	2.4	.	.	.	3%	0.8	-6
Cc1cc(C)c(OCCn2ccnc2)c(C)c1
  4	48	-12	-6.4	1.8	-4.2	-8	.	0.0	-12
CN(Cc1cccc(Cl)c1Cl)CC(O)COc1ccccc1 (stereo unspecified)
  15	-1	-72	3.0	-10	-8.8	-46	-11%	1.1	-7
CC(C)(C)OC(=O)N1CCCC(C(=O)Nc2ccc(C(=O)N3CCCC3)cc2)C1 (stereo unspecified)
  .	.	6	.	-1.7	3.3	4	.	0.6	2
CC(=O)Nc1cccc(NC(=O)CSc2nc(C3CC3)nc3ccccc23)c1
  -16	-1	-10	-1.7	-2.6	4.8	-7	0%	-0.3	22
COc1cccc(C(=O)Nc2cc(=O)n(C)c(=O)n2C)c1OC
  -5	-2	8	1.4	6.9	0.6	8	6%	?	.
Cc1c(N=Cc2cccs2)c(=O)n(-c2ccccc2)n1C
  -11	2	7	3.4	6.2	-8.5	14	-1%	-0.9	2
N=C(N)Cc1ccccc1Sc1ccccc1
  4	-1	.	4.1	.	.	.	2%	-0.1	1
CC1(C)CC(=O)C(C=NCC(O)c2ccccc2)=C(O)C1 (stereo unspecified)
  -16	8	.	1.5	.	.	.	17%	0.2	-3
CCC(C)NC(=O)CN1C(=O)NC2NC(=O)NC21 (stereo unspecified)
  -3	2	11	-4.2	-1.0	1.7	13	-2%	-0.8	-6
O=C(Cc1cccc(C(F)(F)F)c1)Nc1ccccc1
  -3	-21	-22	0.1	-2.4	-2.2	-19	5%	0.2	.
COc1cc(-c2nnc(CSc3nnc(Nc4ccc(Oc5ccccc5)cc4)s3)o2)cc(OC)c1OC
  36	-9	-8	0.1	4.2	6.9	-2	.	-0.7	14
CCOC(=O)C(=O)N1CCN(c2cc3c(cc2[N+](=O)[O-])n(C)c(=O)n3C)CC1
  3	-3	-1	0.9	-1.6	1.3	-3	-4%	0.5	4
c1ccc(OCCOCCN2CCOCC2)cc1
  11	-4	.	?	.	.	.	0%	0.4	-3
O=C(CSc1nnnn1-c1cccc2ccccc12)Nc1ccc(C(=O)O)cc1
  -6	-13	-1	?	1.7	-1.8	4	.	-0.2	-7
CCCC(O)(c1ccccc1)C(CN1CCOCC1)c1ccccc1 (stereo unspecified)
  1	-2	-9	0.9	3.1	-1.3	-9	-5%	1.3	2
CS(=O)(=O)c1ccc2nc(NC(=O)c3ccc(Cn4cc(Br)cn4)o3)sc2c1
  -7	9	1	2.2	-5.5	2.1	-6	.	0.8	-5
CN(/N=C/c1cccs1)c1cc(=O)n(C)c(=O)[nH]1
  .	10	.	.	.	.	.	4%	0.3	3
CCc1ccc(NC(=O)CSc2nnnn2C)cc1
  -8	-12	-4	-1.9	-5.4	0.1	-2	.	-2.8	-7
C/C=C/C(=O)OCC(=O)Nc1ccc(OC)c(OC)c1
  -21	-5	0	-6.2	-0.5	-7.4	4	.	0.0	2
O=C(NCc1ccccn1)/C(=C/c1ccco1)NC(=O)c1ccccc1
  -11	1	.	-0.4	.	.	.	14%	1.1	1
O=C(COC(=O)/C=C/c1ccc(Cl)cc1Cl)Nc1cc(C(F)(F)F)ccc1N1CCOCC1
  6	0	8	-3.5	-1.4	-7.5	4	-7%	-0.4	10
COc1ccc(-n2c(CN3CCN(C)CC3)nc3ccc([N+](=O)[O-])cc3c2=O)c(OC)c1
  -1	-1	11	3.1	3.2	-1.7	3	-4%	1.1	-7
CCOc1ccc(-n2c(=S)sc3c(=O)[nH]c(SCC(=O)NCc4ccco4)nc32)cc1
  0	7	.	1.6	.	.	.	?	0.1	0
O=[N+]([O-])c1cccnc1Sc1n[nH]c(-c2ccc(Cl)cc2)n1
  -8	29	2	3.2	0.9	-1.9	4	-1%	-0.9	-3
CCN(CC)c1ccc(NC(=O)CN(C)Cc2cccs2)cc1
  13	-4	-21	-1.2	27*	2.6	-7	.	-1.3	.
O=C1CN(C(=O)/C=C/c2cc(Br)ccc2F)CCN1
  -8	0	6	0.9	6.3	0.1	3	.	0.2	-3
COc1ccc(Cl)cc1NS(=O)(=O)c1cccc(C(=O)NCC2(N(C)C)CCCCC2)c1
  21	-2	.	-2.1	1.0	.	.	.	0.6	-1
Cc1ccc(S(=O)(=O)Nc2ccc(NC(=O)c3cccnc3)cc2)cc1
  -7	-17	-7	1.1	0.1	-6.1	-6	-1%	-0.2	-3
Oc1ccc(/C=N/N2CCN(Cc3ccccc3)CC2)cc1
  4	3	4	?	2.5	-4.1	18	.	-0.8	-2
c1ccc(Cn2ncc3c(N4CCOCC4)ncnc32)cc1
  -19	0	.	4.7	.	.	.	0%	-0.5	3
COc1cc(C(=O)N(CCN(C)C)CC2CCCN(Cc3ccccc3F)C2)ccc1C (stereo unspecified)
  12	-4	6	2.0	12	0.3	2	.	0.5	.
Cc1cc(OC(=O)c2cccc(F)c2)c([N+](=O)[O-])c(=O)[nH]1
  -7	-8	8	-4.2	0.6	0.3	12	0%	0.4	2
FC(F)(F)c1cccc(Cc2noc(CN(Cc3ccccn3)CC3CCCO3)n2)c1 (stereo unspecified)
  19	4	1	0.0	4.2	0.7	-3	9%	-0.4	3
COc1cccc(NC(=O)CS(=O)(=O)c2cn(CC(=O)N3CCOCC3)c3ccccc23)c1
  -16	-9	12	1.7	-2.3	-0.4	11	0%	0.3	-1
CC(=O)N1CCCC(C(=O)c2ccc(Oc3ccccc3)cc2)C1 (stereo unspecified)
  -2	-21	-23	4.1	1.0	-0.1	-17	3%	-1.8	2
CCOc1ccc(N=C2NC(=O)CS2)cc1
  3	-11	1	2.4	-3.5	-2.7	5	.	0.1	-3
CCOc1ccc2oc(C(=O)OCC(=O)N3C(C)CCCC3C)c(C)c2c1 (stereo unspecified)
  .	.	-28	.	-35	-0.8	-20	31%	-0.2	-1
